From PubChem
Vif TR-FRET: HIV-1 Vif–A3G interaction blockers – biochemical, TR-FRET, GST-Vif 1-94, biotin-A3G peptide, dose response retest, primary screen (AID 1117319). inhibition, %; hits with a dose series show IC50 in µM. TR-FRET GST-Vif / biotin-A3G peptide binding; higher % means a stronger effect; test concentration not given here; strong numbers were not always called active. 260,000 compounds, 0.57% hits;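 active = above the screen mean plus three standard deviations and confirmed in dose response; inconclusive = results disagree or hit not tested in dose response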;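 note: Vif residues 1-94 fused to GST binding biotinylated APOBEC3G peptide 110-148; 0% = full assay without inhibitor and 100% = GST in place of GST-Vif; retest series ran down from 100 µM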
Calb FLC: affects C. albicans growth with fluconazole. C. albicans CaCi-2 (fluconazole-resistant clinical isolate) + fluconazole, Alamar Blue growth, 48 h. growth inhibition, % (concentration not given with the values). 300,000 compounds, 0.57% hits. AID 1979;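 active = most replicates above 75%; inconclusive = exactly half above 75%; inactive = most below 75%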;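 note: all wells also contain fluconazole at 8 µg/ml as a sub-toxic cotreatment; 0% = median of DMSO wells and 100% = median of geldanamycin control wells; wells of about 8 µL received 7.5 nL stock; the first replicate is given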
B2AR ag: activates human beta-2 adrenergic receptor causing internalization. P07550. Am2.2-beta2AR cells, FAP receptor internalization, flow cytometry; reference of the scale not given here. response, % (no concentration beside the values). 340,000 compounds, 0.43% hits. AID 504454;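 active = response above a set limit, near 3 SD of response in nonfluorescent compounds, cut at about 42% in these data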;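 note: stock transfer was 100 nL into about 11 µL; a reference agonist was the positive control; negative values mostly stem from fluorescent compounds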
ALR H2O2 inh: inhibitors of human sulfhydryl oxidase ALR | P55789 | purified ALR, DTT oxidation, H2O2 HRP-luminol luminescence | inhibition, % (concentration not given with the values) | 290,000 compounds, 3.8% hits | AID 485317;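 active = mean and each replicate at 75% or more; inconclusive = only one of the two met; inactive = neither met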;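 note: stock transfer was 7.5 nL into about 7.5 µL; 0% = neutral wells and 100% = wells with inactivated enzyme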
LANA-H2B inh: blocks KSHV LANA binding to histone H2A/H2B. AID 2629. 320,000 compounds, 0.6% hits. inhibition, % (concentration not given with the values). cell-free LANA-H2A/H2B peptide, fluorescence polarization. Q9QR71; in the data active = inhibition mostly above about 10%, no sharp cut-off; inactive = mostly below about 6.7%;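 note: stock transfer was 7.5 nL into about 10 µL; 0% = median of vehicle wells and 100% = median of positive control wells; one replicate is shown; the record names a cut of 25% in any replicate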
Target sequence (Q9QR71 whole entry, looked up): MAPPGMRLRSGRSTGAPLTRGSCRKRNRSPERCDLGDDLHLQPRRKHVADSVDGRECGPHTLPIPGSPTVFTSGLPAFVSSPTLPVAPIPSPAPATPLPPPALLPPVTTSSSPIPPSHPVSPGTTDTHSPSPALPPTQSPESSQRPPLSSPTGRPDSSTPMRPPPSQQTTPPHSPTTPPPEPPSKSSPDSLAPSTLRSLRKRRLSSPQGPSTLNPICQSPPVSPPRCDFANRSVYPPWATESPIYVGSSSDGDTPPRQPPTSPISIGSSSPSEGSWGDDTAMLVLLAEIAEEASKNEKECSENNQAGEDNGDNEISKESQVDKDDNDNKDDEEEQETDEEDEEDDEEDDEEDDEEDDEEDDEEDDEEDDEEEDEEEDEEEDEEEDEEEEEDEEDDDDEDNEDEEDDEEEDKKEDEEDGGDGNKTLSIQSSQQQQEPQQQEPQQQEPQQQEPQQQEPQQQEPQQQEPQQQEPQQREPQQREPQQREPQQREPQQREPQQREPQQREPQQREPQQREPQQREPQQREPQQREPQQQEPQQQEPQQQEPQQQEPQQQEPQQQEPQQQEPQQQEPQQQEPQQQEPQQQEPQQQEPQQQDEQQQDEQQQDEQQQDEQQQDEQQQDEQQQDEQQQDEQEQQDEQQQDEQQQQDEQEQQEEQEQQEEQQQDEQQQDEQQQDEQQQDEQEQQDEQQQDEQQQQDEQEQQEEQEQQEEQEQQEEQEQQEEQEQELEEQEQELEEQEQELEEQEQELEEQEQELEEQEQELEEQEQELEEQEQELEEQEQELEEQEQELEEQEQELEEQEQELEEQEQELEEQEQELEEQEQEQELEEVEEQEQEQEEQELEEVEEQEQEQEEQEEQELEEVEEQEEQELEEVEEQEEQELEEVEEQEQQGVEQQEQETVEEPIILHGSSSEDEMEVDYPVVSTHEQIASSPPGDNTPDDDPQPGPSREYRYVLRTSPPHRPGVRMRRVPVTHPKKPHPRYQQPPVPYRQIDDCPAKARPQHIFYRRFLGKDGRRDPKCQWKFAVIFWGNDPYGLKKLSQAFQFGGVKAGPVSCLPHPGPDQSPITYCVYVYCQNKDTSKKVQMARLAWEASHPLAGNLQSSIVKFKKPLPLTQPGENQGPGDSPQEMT
HNF4A DNA FP: change in binding of human HNF4 alpha to DNA; P41235; HNF4a-FITC DNA binding, fluorescence polarization, 1 h; activity change, % at 10 µM; 360,000 compounds, 0.3% hits; AID 1224865; in the data active = activity change above about 30%, passing the limit was not always enough;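 note: controls were the assay level and a saturating level of protein; the project sought stronger binding though the title names inhibitors; some compounds called inactive have numbers as strong as hits; positive values seem to mean higher polarization but the record does not say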
RanGTP-Imp inh: disruptors of Ran-importin-beta complex formation – biochemical, FRET, CFP-Ran, YFP-importin-beta, homogeneous, primary screen; 300,000 compounds, 1.1% hits; cell-free CFP-Ran/YFP-importin-beta FRET ratio; inhibition, % (no concentration beside the values);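 active = most replicates above 15%; inconclusive = exactly half above 15%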;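 note: 0% = DMSO wells and 100% = Ran loaded with GDP instead of GTP; wells of about 40 µL received 100 nL stock; the first replicate is given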
Active calls of the source: *; ? = inconclusive; . = no result given; & = joins results of further samples. This is a random part of the collection. Share with any hit: about 6.3%.

SMILES	Vif TR-FRET	Calb FLC	B2AR ag	ALR H2O2 inh	LANA-H2B inh	HNF4A DNA FP	RanGTP-Imp inh
COc1ccc(O)c(C(=O)c2cnn(-c3ccc(Cl)cc3)c2)c1	.	6	-7	7	-2.7	0.8	-1.1
Cc1ccc(C)c(NC(=O)CN(C)C(=O)c2ccc3ncsc3c2)c1	9%	.	-1	.	.	0.5	.
CC[N+](CC)(CC)C/C(N)=N/O	2%	0	5	18	2.4	-1.0	-0.7
N#CC1=C(N)Oc2ccc3ccc(O)cc3c2C1c1cccnc1 (configuration not stated)	2%	7	6	16	-0.7	6.0	3.9
O=C(Cc1ccccc1[N+](=O)[O-])N1CCOCC1	.	0	-6	8	2.2	0.5	-0.9
COc1ccc(C(=O)NC2(C(F)(F)F)NC(=O)N(CCCc3ccccc3)C2=O)cc1OC (configuration not stated)	32%	-13	-4	.	.	2.7	-0.6
Cc1cccc(-n2ccnc2CN2CCN(C3CCCC3)C(CCO)C2)c1 (configuration not stated)	10%	3	4	0	0.6	1.4	0.2
CC(C)CNC(CC(=O)O)c1ccccc1 (configuration not stated)	9%	-4	-2	-9	-3.8	0.1	0.7
Cc1[nH]n(-c2ccccc2)c(=O)c1C(C[N+](=O)[O-])c1ccc(Br)cc1 (configuration not stated)	6%	-5	28	41	5.7	1.8	3.0
COc1ccc(C(=O)NCCNc2nc3ccc(C)cc3cc2C#N)cc1OC	2%	16	15	90*	-4.4	2.3	77*
Cc1cc(C)c(NC(=O)CSc2nnc(CN3CCOCC3)n2C)c(C)c1	.	0	0	-6	0.3	-3.0	2.4
COc1ccc(NC(=O)c2nc[nH]c2C(=O)NCc2ccccc2)cc1	.	3	7	4	-1.0	2.2	-2.8
COc1cccc(/C=N/Nc2snc(SC)c2C#N)c1O	5%	2	15	86*	-2.9	0.5	-3.4
COc1ccc(C)cc1S(=O)(=O)N1CCN(C(=O)c2ncoc2-c2ccccc2C)CC1	.	2	1	-31	-0.7	6.1	3.8
O=C(c1nc2nc(-c3ccccc3)cc(C(F)(F)F)n2n1)N1CCOCC1	-2%	14	-4	-32	0.5	-1.8	2.1
CC1CCc2c(sc3ncn(Cc4ccc(C(=O)O)cc4)c(=O)c23)C1 (configuration not stated)	.	?	6	8	-0.3	5.0	4.2
Cc1csc(NC(=O)CSCC(=O)Nc2ccccc2)n1	-6%	?	7	92*	0.1	-2.5	-3.1
O=C(c1ccco1)N1CCCC(N2CCN(c3ccccc3F)CC2)C1 (configuration not stated)	-10%	1	3	4	2.6	2.1	?
Cc1ccc(CN(C)C(=O)CN2C(=O)NC(c3ccccc3)(c3ccccc3)C2=O)c(C)c1	-9%	.	12	.	5.9	0.0	.
CCOC(=O)CSC1=C(C#N)C(c2sccc2C)CC(=O)N1 (configuration not stated)	2%	39	-3	2	-0.1	1.6	-2.2
CC1(C)Cc2c(c(N3CCOCC3)nc3sc4c(NCCN5CCOCC5)nnnc4c23)CS1	.	35	2	-3	2.1	10	1.2
Cc1ccc(OCCCC(=O)N2CCOCC2)cc1	-3%	-6	-6	.	3.6	-2.2	4.1
CCOc1cc(NC(=O)C2CCCCC2)c(OCC)cc1NC(=O)c1ccccn1	-2%	-2	-13	-7	-3.0	-1.8	0.0
Cc1c(C(=O)Nc2ccccc2C(=O)N2CCOCC2)cccc1[N+](=O)[O-]	-1%	-1	7	-8	2.9	-0.2	4.7
O=C(NC1=NCCS1)c1sc2cc(Cl)cc(Cl)c2c1Cl	-17%	-1	4	3	3.4	-0.1	-0.1

Complete entries from above:
Record of `N#CC1=C(N)Oc2ccc3ccc(O)cc3c2C1c1cccnc1` (configuration not stated) = Vif TR-FRET = 2%; Calb FLC = 7; B2AR ag = 6; ALR H2O2 inh = 16; LANA-H2B inh = -0.7; HNF4A DNA FP = 6.0; RanGTP-Imp inh = 3.9
Record of `CC1(C)Cc2c(c(N3CCOCC3)nc3sc4c(NCCN5CCOCC5)nnnc4c23)CS1` = Vif TR-FRET = .; Calb FLC = 35; B2AR ag = 2; ALR H2O2 inh = -3; LANA-H2B inh = 2.1; HNF4A DNA FP = 10; RanGTP-Imp inh = 1.2

Other entries
SMILES	Vif TR-FRET	Calb FLC	B2AR ag	ALR H2O2 inh	LANA-H2B inh	HNF4A DNA FP	RanGTP-Imp inh
NS(=O)(=O)c1cccc(NC(=O)C(Cc2ccccc2)NC(=O)c2ccccc2)c1 (configuration not stated)	.	0	3	.	-0.2	3.5	2.3
CCSC1=C(C#N)C(CC(C)C)C2=C(CCCC2=O)N1 (configuration not stated)	-1%	-25	-3	11	3.8	0.1	0.6
COc1ccc(-n2c(C)cc(C(=O)COc3ccc(C)nc3[N+](=O)[O-])c2C)cc1	4%	-2	-12	-9	0.0	3.6	-1.7
CC(C)OC(=O)CSc1nc(N)c(C#N)cc1C#N	32%	-13	6	-3	3.7	0.6	2.6
O=C(c1cc(Br)c(Br)s1)N1CCc2ccccc2C1	.	.	-4	-2	-0.3	1.5	.
O=C(CSc1nnc(-c2cccnc2)n1-c1ccccc1)NCc1ccc2c(c1)OCO2	-4%	2	-3	-1	-1.2	-0.4	?
CCOC(=O)C(=O)NCC(c1cccs1)S(=O)(=O)c1ccc(F)cc1 (configuration not stated)	.	-2	-1	-1	10	-1.2	5.1
O[C@@H]([C@H](O)[C@H](O)CBr)[C@H](O)CBr	.	.	-4	-16	4.7	1.2	0.4
CCOC(=O)c1c(C)[nH]c(C(=O)COC(=O)CNC(=O)c2ccc(Cl)cc2)c1C	.	-1	-9	-8	4.4	-4.2	1.2
O=C(Cc1ccc(NC(=O)C2CCN(C(=O)C3CC3)CC2)cc1)Nc1cccc(C(=O)N2CCCC2)c1	-2%	.	2	.	.	1.4	.
Cc1nc(SCC(=O)O)n[nH]1	-3%	9	2	-7	2.4	-1.1	-0.2
O=C(CCNS(=O)(=O)c1ccccc1)N1CCCCCCC1	-2%	1	2	-5	1.9	2.6	-0.5
CN(C)c1ccc(CNCc2cccnc2)cc1	.	2	-5	29	2.7	-1.9	1.0
Cc1ccccc1Cn1cnc2c([N+](=O)[O-])c(C)c(C)cc21	-4%	13	4	1	0.9	6.1	2.5
O=C(c1cc([N+](=O)[O-])ccc1N1CCOCC1)N1CCN(S(=O)(=O)c2ccc(F)cc2)CC1	.	8	4	-10	-5.8	2.9	-2.0
CC(C)c1nnc(NC(=O)c2c(O)c3cccc4c3n(c2=O)CCC4)s1	4%&16%	19	-4	0	3.9	-5.1	3.3
CC1(C)CC2c3cccc(C(=O)O)c3C(=O)N2c2c1ccc1ccccc21 (configuration not stated)	.	3	6	-2	-0.9	-1.2	-2.4
COc1ccc(S(=O)(=O)N2CCCCCC2)cc1NC(=O)c1c2c(nc3ccccc13)CCN(Cc1ccccc1)C2	19%	36	22	2	0.8	-2.0	2.4
CN(C)S(=O)(=O)n1cc(/C=C(\NC(=O)c2ccccc2Cl)C(=O)NCCCn2ccnc2)c2ccccc21	.	13	5	-2	-0.6	6.2	0.4
CCOC(=O)CP(=O)(c1ccccc1)c1ccccc1	8%	-16	12	-1	-2.3	-1.1	-1.6
O=C(NCCNc1ccc(Cl)cc1[N+](=O)[O-])c1cccnc1	-1%	7	-19	-10	12*	0.7	-5.4
CC1CCN(C(c2cc3cc4c(cc3[nH]c2=O)OCO4)c2nnnn2CC2CCCO2)CC1 (configuration not stated)	4%	-5	-2	-8	-0.9	4.2	0.7
COc1ccc(Cl)c(NC(=O)C/C(C)=N/NC(=O)CCc2ccccc2)c1	.	-3	3	.	-5.5	5.4	-0.8
Cc1c(C(=O)NC(C)c2ccccn2)oc2c(Cl)cccc12 (configuration not stated)	1%	.	-7	.	.	-1.6	.
O=C1C2CCCN2C(c2ccccc2F)N1c1cccc(Cl)c1 (configuration not stated)	-3%	-16	-4	-6	3.4	0.5	3.1

Later entries
SMILES	Vif TR-FRET	Calb FLC	B2AR ag	ALR H2O2 inh	LANA-H2B inh	HNF4A DNA FP	RanGTP-Imp inh
COc1cc(OC)cc(C(=O)N[C@H](C(=O)OCC(=O)c2ccc(F)cc2)C(C)C)c1	0%	7	4	.	-2.9	6.4	.
COc1ccc(NC(=S)N/N=C/c2ccc(F)cc2)cc1OC	1%	-11	-7	38	3.0	-11	0.4
CCC(NC(=O)NNC(N)=S)(C(F)(F)F)C(F)(F)F	2%	-8	-7	4	-1.8	-0.1	4.9
C=CCNc1nc(C(=O)OCC(=O)NCc2cccc(Cl)c2)cs1	-7%	.	-4	1	0.9	3.2	.
O=C(Cc1c[nH]c2ccccc12)Nc1nc2ccccc2[nH]1	3%	2	-4	.	0.6	0.7	1.0
Cc1ccc2c(c1)NC(=O)C(CC(=O)NCCCN1CCCCC1)O2 (configuration not stated)	0%	20	-2	.	3.9	-0.6	7.7
CC(=O)c1cccc(NC(=O)/C(=C/c2ccncc2)NC(=O)c2ccccc2)c1	.	-1	-1	-5	-1.5	-1.3	1.1
COc1cccc(NC(=O)c2oc3ccccc3c2NC(=O)C2CC2)c1	3%	-2	-5	5	-0.2	-3.0	-2.5
CN(C)c1ccc(N2C(=NC(=O)CCC3CCCC3)SC3CS(=O)(=O)CC32)cc1 (configuration not stated)	.	0	2	-12	1.3	2.5	-2.3
Cn1c2c(c(=O)n(C)c1=O)C(c1ccc(Cl)cc1)C(C#N)=C(N)O2 (configuration not stated)	.	-3	-4	.	-4.7	3.5	6.8
Cc1cccc(N2CCN(C(=O)c3ccc(-n4cncn4)c([N+](=O)[O-])c3)CC2)c1C	-4%	3	-6	-12	-4.0	2.2	5.4
Clc1ncn(C23CC4CC(CC(C4)C2)C3)n1	11%	-13	2	-5	4.5	-0.5	-4.9
Cc1ccc(C(=O)O/N=C(\N)c2ccccn2)cc1Cl	2%	2	1	-4	-2.3	-2.9	4.5
COC(=O)c1cc(NS(=O)(=O)c2ccc(N3CCOCC3)c(N)c2)cc(C(=O)OC)c1	.	-8	-7	34	1.9	-1.3	?
COC(=O)c1cn(C(=O)c2cc(Cl)ccc2Cl)c2ccccc12	2%	-3	15	-6	-3.2	-1.5	-2.3
CCOC(=O)N1CCN(S(=O)(=O)c2ccc(C(=O)N(CCN(CC)CC)c3nc4c(C)cccc4s3)cc2)CC1	-1%	2	-2	6	0.8	-0.7	0.0
COc1ccc(-c2csc(N(CC(C)C)C(=O)c3ccco3)n2)cc1	.	-2	0	5	-1.4	0.6	?
Oc1cc(Cc2ccccc2)cnc1CN1CCOCC1	1%	3	4	15	-0.4	-0.8	-0.2
Cc1ccc(OCCCC(=O)ON=C(N)c2ccccc2C)cc1	-6%	.	1	-5	2.2	-0.9	.
COC(=O)c1[nH]c2cccc(OC)c2c1NC(=O)CN1CCN(c2cccc(OC)c2)C(C)C1 (configuration not stated)	2%	?	-4	.	-1.5	-2.9	-0.8
COCCCNc1nc2c(c(=O)[nH]c(=O)n2C)n1CCCc1ccccc1	-2%	5	-5	4	5.6	0.5	1.0
COc1cccc(/C(=N/O)C2CC2c2ccc(Cl)cc2)c1 (configuration not stated)	6%	-38	5	-3	2.1	1.9	-3.0
NC(Cc1cccc2nsnc12)C(=O)O (configuration not stated)	5%	-5	2	-12	1.6	3.4	10
CC(=O)Nc1ccc(NC(=O)CN(c2cccc(C(C)=O)c2)S(C)(=O)=O)cc1	69%	-3	-5	3	-0.7	5.0	8.3
CC(=O)N1CCN(c2ccc(NC(=O)c3cccc(C)c3)cc2)CC1	.	-2	5	7	2.9	1.7	2.2
Cc1cc(C)nc(N2C(=O)CC(Cc3ccccc3)C2=O)n1 (configuration not stated)	9%	20	9	-4	0.2	0.4	-0.3
CCc1nnc(-n2nc(C)cc2-c2ccccc2)n1N	0%	.	-6	-17	0.8	3.9	.
CN(C(=O)COC(=O)c1ccc(CN2CCCC2=O)cc1)c1ccccc1	.	.	1	1	-6.5	-1.5	.
O=C(N/N=C/c1cccc(Oc2ccccc2)c1)c1cc[n+]([O-])cc1	5%	9	-15	-15	3.7	1.9	-1.6
